Screening data (PubChem BioAssay)
RanGTP-Imp inh: inhibitors of RanGTP-importin-beta interaction, primary screen, biochemical, FRET, CFP-Ran, YFP-importin-beta, homogeneous. cell-free CFP-Ran/YFP-importin-beta FRET ratio. 1.1% of 300,000 active. AID 2216. inhibition, % (test concentration not listed);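 active means most replicates above 15%; inconclusive means exactly half above 15%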;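 further: 0% = DMSO wells and 100% = Ran loaded with GDP instead of GTP; wells of about 40 µL received 100 nL stock; the first replicate is given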
Beta2AR agonist: human beta-2 adrenergic receptor agonism by FAP; P07550; Am2.2-beta2AR cells, FAP receptor internalization, flow cytometry; reference of the scale not given here; response, % (test concentration not listed); 0.43% of 340,000 active; AID 504454;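 active means response above a set limit, near 3 SD of response in nonfluorescent compounds, cut at about 42% in these data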;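 further: stock transfer was 100 nL into about 11 µL; a reference agonist was the positive control; negative values mostly stem from fluorescent compounds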
Target sequence (P07550 whole entry, looked up): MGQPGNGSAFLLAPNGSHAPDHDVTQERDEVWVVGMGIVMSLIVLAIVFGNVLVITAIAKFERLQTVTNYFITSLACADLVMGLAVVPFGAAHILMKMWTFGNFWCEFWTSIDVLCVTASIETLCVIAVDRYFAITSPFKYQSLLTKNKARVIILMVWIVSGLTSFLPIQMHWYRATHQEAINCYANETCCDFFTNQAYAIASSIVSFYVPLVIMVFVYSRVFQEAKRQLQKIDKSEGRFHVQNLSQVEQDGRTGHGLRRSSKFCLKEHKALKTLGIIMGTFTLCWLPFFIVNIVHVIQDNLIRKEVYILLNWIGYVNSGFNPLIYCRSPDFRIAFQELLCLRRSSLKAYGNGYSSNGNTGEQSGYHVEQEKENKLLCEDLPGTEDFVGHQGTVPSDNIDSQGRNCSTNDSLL
ALR inh: inhibitors of human sulfhydryl oxidase ALR. purified ALR, DTT oxidation, H2O2 HRP-luminol luminescence. inhibition, % (no concentration beside the values). 3.8% of 290,000 active. AID 485317. P55789;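 active means mean and each replicate at 75% or more; inconclusive means only one of the two met; inactive means neither met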;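 further: stock transfer was 7.5 nL into about 7.5 µL; 0% = neutral wells and 100% = wells with inactivated enzyme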
Target sequence (P55789 whole entry, looked up): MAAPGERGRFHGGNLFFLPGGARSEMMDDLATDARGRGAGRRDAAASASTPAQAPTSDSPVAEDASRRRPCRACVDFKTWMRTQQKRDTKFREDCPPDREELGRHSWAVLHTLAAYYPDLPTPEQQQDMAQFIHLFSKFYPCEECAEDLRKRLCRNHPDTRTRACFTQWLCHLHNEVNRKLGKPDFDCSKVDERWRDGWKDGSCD
Calb FLC: affects C. albicans growth with fluconazole | C. albicans CaCi-2 (fluconazole-resistant clinical isolate) + fluconazole, Alamar Blue growth, 48 h | 0.57% of 300,000 active | growth inhibition, % (concentration not given with the values);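 active means most replicates above 75%; inconclusive means exactly half above 75%; inactive means most below 75%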;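 further: all wells also contain fluconazole at 8 µg/ml as a sub-toxic cotreatment; 0% = median of DMSO wells and 100% = median of geldanamycin control wells; wells of about 8 µL received 7.5 nL stock; the first replicate is given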
HNF4A DNA FP: change in binding of human HNF4 alpha to DNA; P41235; HNF4a-FITC DNA binding, fluorescence polarization, 1 h; activity change, % at 10 µM; 0.3% of 360,000 active; in the data active means activity change above about 30%, passing the limit was not always enough;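 further: controls were the assay level and a saturating level of protein; the project sought stronger binding though the title names inhibitors; some compounds called inactive have numbers as strong as hits; positive values seem to mean higher polarization but the record does not say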
Target sequence (P41235 whole entry, looked up): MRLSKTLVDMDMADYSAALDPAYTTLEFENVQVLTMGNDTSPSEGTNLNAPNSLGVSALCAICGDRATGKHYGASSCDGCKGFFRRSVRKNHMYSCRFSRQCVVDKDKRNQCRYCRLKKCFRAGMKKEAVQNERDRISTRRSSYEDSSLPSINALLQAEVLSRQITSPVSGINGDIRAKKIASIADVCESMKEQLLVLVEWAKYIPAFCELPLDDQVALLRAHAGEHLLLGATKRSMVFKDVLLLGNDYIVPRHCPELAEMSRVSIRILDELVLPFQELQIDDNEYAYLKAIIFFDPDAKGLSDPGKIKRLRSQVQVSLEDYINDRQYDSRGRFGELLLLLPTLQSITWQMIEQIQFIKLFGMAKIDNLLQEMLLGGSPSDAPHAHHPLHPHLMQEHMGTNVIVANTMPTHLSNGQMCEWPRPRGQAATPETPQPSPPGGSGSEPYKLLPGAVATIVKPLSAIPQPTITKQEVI
Vif A3G: HIV-1 Vif–A3G interaction blockers – biochemical, TR-FRET, GST-Vif 1-94, biotin-A3G peptide, dose response retest, primary screen (AID 1117319) | one-dose inhibition, %; IC50 in µM for titrated hits | 0.57% of 260,000 active | TR-FRET GST-Vif / biotin-A3G peptide binding; higher % means a stronger effect; test concentration not given here; strong numbers were not always called active;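 active means above the screen mean plus three standard deviations and confirmed in dose response; inconclusive means results disagree or hit not tested in dose response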;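 further: Vif residues 1-94 fused to GST binding biotinylated APOBEC3G peptide 110-148; 0% = full assay without inhibitor and 100% = GST in place of GST-Vif; retest series ran down from 100 µM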
LANA-H2B inh: blocks KSHV LANA binding to histone H2A/H2B | Q9QR71 | cell-free LANA-H2A/H2B peptide, fluorescence polarization | inhibition, % (concentration not given with the values) | 0.6% of 320,000 active | AID 2629; in the data active means inhibition mostly above about 10%, no sharp cut-off; inactive means mostly below about 6.7%;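 further: stock transfer was 7.5 nL into about 10 µL; 0% = median of vehicle wells and 100% = median of positive control wells; one replicate is shown; the record names a cut of 25% in any replicate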
Active calls of the source: *; u = inconclusive; x = no result given.

item	SMILES	RanGTP-Imp inh	LANA-H2B inh	Calb FLC	Beta2AR agonist	HNF4A DNA FP	ALR inh	Vif A3G
1	Cc1cc(C)nc(N/N=C/c2ccncc2)n1	5.0	0.5	3	42	5.1	-13	-4%
2	Nc1c(Cl)cc(Cl)cc1C(=O)OCC(=O)N1CCOCC1	-1.0	-4.1	-3	11	3.4	-27	-12%
3	COc1ccc(CCN2C(=O)CC(Cc3ccc(Br)cc3)C2=O)cc1OC (stereo not given)	0.0	4.6	3	-6	4.0	-18	22%
4	O=C(C[C@H]1C/C=C\CC[C@H](Cc2ccc(F)cc2)C(=O)OC[C@H]2CCCN2C1=O)N[C@@H](CO)Cc1ccccc1	x	-2.3	x	-2	2.4	-9	x
5	COc1ccc(C(=O)Nc2nc3ccccc3s2)cc1	3.6	-4.9	-11	11	2.3	-1	x
6	CC(NC(=O)c1ccc(Cl)c(S(=O)(=O)N2CCCCCC2)c1)c1cccnc1 (stereo not given)	x	4.8	x	-5	-1.2	-2	6%
7	COc1ccc(OC)c(CN2CCN(C(=O)CNC(=O)c3ccc(C(C)(C)C)cc3)CC2)c1	x	-4.8	x	-10	-4.3	-1	12%
8	Cc1ccccc1CC1(CO)CCCN(Cc2ccc(C#CC(C)(C)O)cc2)C1 (stereo not given)	-3.2	-1.0	-6	11	6.2	-3	-1%
9	CC1CC(C)CN(C(=O)C2CCC(CNS(=O)(=O)c3ccccc3)CC2)C1 (stereo not given)	-2.3	-1.6	-9	-12	0.5	-3	-11%
10	Cc1ccc(NC(=O)COC(=O)CNC(=O)C2CCCCC2)cc1S(=O)(=O)N(C)C	x	-5.3	x	1	-1.5	0	-5%
11	O=C1[C@@H](Oc2ccccc2)[C@@H](c2ccncc2)N1c1ccccc1	x	x	x	17	3.5	x	1%
12	CCCCCOc1ccc(C2C(C(C)=O)=C(C)Nc3ncnn32)cc1OC (stereo not given)	5.5	1.3	-2	3	1.0	-4	78%
13	C=CCN1C(=O)C(Cc2ccc(Br)cc2)S/C1=N\N=C\c1ccco1 (stereo not given)	0.3	-0.4	-4	20	0.6	54	6%
14	CCN(CC(=O)NC1CCS(=O)(=O)C1)C(=O)COc1ccccc1-c1ccccc1 (stereo not given)	3.7	5.7	-5	-7	-6.7	3	-3%
15	O=C(CSc1nc2ccccc2s1)N/N=C/c1ccc(C(=O)O)cc1	1.0	2.8	-11	7	-1.5	x	-2%
16	CCN1CCN(C(=O)CCc2nc3ccccc3n2-c2ccccc2)CC1	-2.0	-3.6	3	-5	0.3	-1	0%
17	CC1CC(C)CN(CCCNC(=O)c2c(O)nc3ccccn3c2=O)C1 (stereo not given)	1.6	-1.5	4	0	1.3	-3	1%
18	CC(=O)c1ccc(NC(=O)C(C)Sc2nnc3ccccn23)cc1 (stereo not given)	x	1.6	x	2	4.1	25	-6%
19	CCN(c1ccccc1)S(=O)(=O)c1ccc(OC)c(NC(=O)Cn2cnc3c2c(=O)n(C)c(=O)n3C)c1	u	2.1	-3	13	5.8	-8	21%
20	COc1ccc(C(O)Cn2ccsc2=NC(C)=O)cc1 (stereo not given)	0.1	3.7	3	-4	3.6	-13	3%
21	O=C(Cn1cnc2ccccc2c1=O)Nc1ccc(S(=O)(=O)N2CCOCC2)cc1	3.1	5.5	-12	19	2.9	1	24%
22	COc1cccc(N2CCN(C(=O)C3CCCN(S(=O)(=O)c4cnc[nH]4)C3)CC2)c1 (stereo not given)	2.2	-0.4	-1	9	-0.9	99*	7%
23	C=CCN(c1ccccc1)S(=O)(=O)c1cccc(C(=O)Nc2nnc(SCC)s2)c1	0.1	1.2	-47	9	0.0	67	-5%
24	Cc1ccc(C)c(NC(=S)NCc2cccs2)c1	0.5	9.0	-7	4	2.4	29	-10%
25	COc1ccc(N2CCN(CCCNC(=O)C3CCCN(S(=O)(=O)c4c(C)n[nH]c4C)C3)CC2)cc1 (stereo not given)	0.8	-2.6	-3	-20	0.9	61	8%
26	COc1ccc(CC(=O)N/N=C(\C)c2cccnc2)cc1OC	-0.1	1.0	40	0	1.3	-13	x
27	O=C(NCCC1=CCCCC1)c1ccc(-n2cncn2)c([N+](=O)[O-])c1	0.2	-3.9	1	15	-0.9	-8	5%
28	O=C(CCc1nnc(-c2ccc(-c3ccccc3)cc2)o1)NCCc1ccccn1	-1.1	0.0	7	-8	1.4	x	x
29	Cc1cc(C(=O)CN2C(=O)CCC2=O)c(C)n1Cc1ccccc1	-4.7	0.3	5	1	3.4	94*	u
30	Cc1ccc(OCC(=O)N(Cc2ccco2)C2CCS(=O)(=O)C2)cc1 (stereo not given)	-2.5	-3.1	31	-2	-0.8	0	-2%
31	CCC(Sc1nc(C)cc(C)n1)C(=O)O (stereo not given)	1.2	1.3	9	10	-0.1	0	14%
32	CCCCN1CC(COCc2ccccc2)Oc2cccc(NCc3ccc(OC)cc3)c2S1(=O)=O (stereo not given)	x	x	x	-6	5.7	x	-4%
33	CCOc1ccc(/C=C/C2=Cc3c(sc(NC(=O)CSc4n[nH]c(N)n4)c3C#N)C(C)(C)C2)cc1	-57	-4.5	24	-4	42*	14	u
34	CC(=O)N1CCC(N(CCN2CCOCC2)C(=S)Nc2ccccc2C)CC1	-1.7	-2.6	-3	7	0.6	-3	x
35	Cc1ccc(C2SCC(=O)N2c2ccccc2)cc1 (stereo not given)	1.2	2.2	8	-10	2.5	98*	2%
36	O=C1C=CC(=Nc2ccc3c(c2)Cc2ccccc2-3)O1	x	x	x	-1	3.6	x	-10%
37	CCCCC1CC1C(=O)Nc1ccc(OC)c(OC)c1 (stereo not given)	0.0	11	-9	9	-1.4	-37	1%
38	Cc1ccc2c(c1)N(CC(=O)NCc1cccnc1)C(=O)CO2	1.4	-5.5	-6	2	1.5	-4	13%
39	CCOC(=O)c1c(NC(=O)C2C3C=CC(C3)C2(C)C(=O)O)sc2c1CCCC2 (stereo not given)	u	-4.4	-4	-1	-4.2	91*	26%
40	CCCCSc1nsc(NC(C)=O)n1	-2.7	1.3	-5	3	1.7	-3	25%

Entries listed so far that contain bromine (2):
item	SMILES	RanGTP-Imp inh	LANA-H2B inh	Calb FLC	Beta2AR agonist	HNF4A DNA FP	ALR inh	Vif A3G
3	COc1ccc(CCN2C(=O)CC(Cc3ccc(Br)cc3)C2=O)cc1OC (stereo not given)	0.0	4.6	3	-6	4.0	-18	22%
13	C=CCN1C(=O)C(Cc2ccc(Br)cc2)S/C1=N\N=C\c1ccco1 (stereo not given)	0.3	-0.4	-4	20	0.6	54	6%

Next compounds follow.
item	SMILES	RanGTP-Imp inh	LANA-H2B inh	Calb FLC	Beta2AR agonist	HNF4A DNA FP	ALR inh	Vif A3G
41	O=C1c2ccncc2C(=O)N1CO	5.2	-1.1	3	-4	2.4	0	-3%
42	S=C(NCc1ccc2c(c1)OCO2)NCc1ccc2c(c1)OCO2	2.4	6.2	-30	0	-2.8	-5	2%
43	CCCCC(=O)Nc1ccc2c3c(cccc13)C(=O)N2CC	-5.6	-2.7	20	-2	0.8	-62	3%
44	COc1cc(C(=O)N/N=C(\C)c2ccc3c(c2)OCO3)cc(OC)c1OC	-1.3	11	-8	14	-0.3	-30	-1%
45	Cc1ccc(-c2nc3ncccn3c2Nc2ccccc2C)o1	-3.5	-1.6	u	-7	-3.5	98*	2%
46	COC(=O)c1ccc(/C=N\n2c(C)nnc2C)cc1	3.5	-1.4	5	10	1.4	-3	24%
47	CC(=O)c1ccc(OCCCC(=O)OCc2nnc(-c3ccc(Cl)cc3)o2)cc1	-7.7	0.3	u	3	2.5	-17	4%
48	O=[n+]1c2c(n([O-])c3c1CCC3)CCCC2	-3.0	1.1	-3	-6	3.2	3	20%
49	COc1ccc(C(CNc2ccc(C(F)(F)F)cn2)N(C)C)cc1OC (stereo not given)	4.6	3.6	-6	0	-0.1	0	x
50	CCOC(=O)c1ccc(NC2c3ccccc3C(=O)N2c2ccc(C)cn2)cc1 (stereo not given)	1.2	-3.6	1	5	-5.0	-1	-6%
51	O=C1c2ccc(Oc3ccc([N+](=O)[O-])cc3)cc2C(=O)N1CCO	-1.7	0.1	-3	-1	-5.5	-2	5%
52	Cc1cc([N+](=O)[O-])ccc1N=Nc1c(N)[nH]n(-c2ccccc2)c1=O	-0.6	2.0	4	5	-3.9	22	-6%
53	CCOC(=O)c1cc(-c2ccccc2)nn1CC1CC(c2cccc([N+](=O)[O-])c2)=NO1 (stereo not given)	-5.7	3.8	-15	0	-0.5	3	x
54	CCOc1ccc(-n2c(C)nc3cc(C(=O)NCc4ccc5c(c4)OCO5)ccc32)cc1	-1.0	8.8	-15	1	3.3	-2	6%
55	Cc1cc2c(cc1C)N(C(=O)CN1C(=O)c3ccccc3C1=O)C(C)(C)c1ssc(=S)c1-2	2.2	2.8	-16	0	-6.1	0	-1%
56	CCOC(=O)c1oc2ccccc2c1CN1CCN(C(=O)c2ccccc2)CC1	-2.4	-1.4	-2	-7	1.6	-3	8%
57	CCOC(=O)c1nccnc1C(=O)Nc1ccc(C(F)(F)F)cc1	-1.4	1.9	7	8	-0.1	x	-8%
58	Cc1cc(OCC(=O)NNC(=S)NCC2CCCO2)cc(C)c1Cl (stereo not given)	1.2	2.3	12	1	2.1	12	-5%
59	COc1ccc(S(=O)(=O)N2CCOCC2)cc1NS(=O)(=O)c1ccc(F)c(F)c1	x	-10	x	-1	-2.7	1	x
60	Cc1ccc(-c2cc(C(=O)NCCCN3CCOCC3)c3ccc(Cl)c(C)c3n2)cc1	3.5	2.0	18	29	2.9	-3	-1%
61	NC(=O)c1cccc2c3c([nH]c12)CCCC3	85*	-0.7	2	-4	-3.5	-14	29%
62	Fc1ccccc1OCCCN1CCOCC1	3.4	2.4	-1	-9	-2.7	-51	0%
63	O=C(Nc1cccc(C(F)(F)F)c1)C12CC3CC(CC(C3)C1)C2	2.9	-1.0	-4	1	-1.6	-28	u
64	CCN(CC(=O)Nc1cc(Cl)ccc1C)C(=O)c1oc2ccc(OC)cc2c1C	1.7	-3.3	7	-4	-1.0	x	x
65	O=C(CSc1ccc(Cl)cc1)Nc1ccccc1Oc1ccccc1	1.1	-0.6	3	3	0.6	x	x
66	O=C(NCCc1ccccc1)c1ccc(Cl)cc1[N+](=O)[O-]	1.4	4.3	0	-6	-1.3	-13	-7%
67	O=C(N/N=C/c1cc(Br)c(Br)o1)C(O)c1ccccc1 (stereo not given)	x	5.4	x	3	-11	-12	u
68	CCOc1ccc2nc(SCC#N)c(C#N)cc2c1	-1.0	2.9	4	5	-0.9	1	-48%
69	[N-]=[N+]=NC[C@H](c1ccccc1)N1CCN(Cc2ccccc2)CCC1=O	-4.0	-2.4	-5	3	-0.1	-13	x
70	COc1ccc(/C=C/C(=O)OCC(=O)Nc2ccc(N3CCOCC3)cc2)cc1OC	3.6	0.7	-2	5	2.1	-1	x
71	COc1ccc(C(=O)NC(C)c2ccc(-n3ccnc3)cc2)cc1S(=O)(=O)N1CCOCC1 (stereo not given)	x	x	x	-2	1.2	x	-4%

Compound profiles, from the list above.
Fc1ccccc1OCCCN1CCOCC1 as listed: RanGTP-Imp inh: 3.4; LANA-H2B inh: 2.4; Calb FLC: -1; Beta2AR agonist: -9; HNF4A DNA FP: -2.7; ALR inh: -51; Vif A3G: 0%
O=C(CSc1ccc(Cl)cc1)Nc1ccccc1Oc1ccccc1 as listed: RanGTP-Imp inh: 1.1; LANA-H2B inh: -0.6; Calb FLC: 3; Beta2AR agonist: 3; HNF4A DNA FP: 0.6; ALR inh: x; Vif A3G: x
O=C(Nc1cccc(C(F)(F)F)c1)C12CC3CC(CC(C3)C1)C2 as listed: RanGTP-Imp inh: 2.9; LANA-H2B inh: -1.0; Calb FLC: -4; Beta2AR agonist: 1; HNF4A DNA FP: -1.6; ALR inh: -28; Vif A3G: u
